Screening data (PubChem)
DUX4 txn inh: inhibitors of DUX4-driven ZSCAN4 reporter expression, primary screen, 293T cells, Gaussia and Italica luciferase. AID 1224904, 2016. 293T-iDUX4 ZSCAN4-Gaussia luciferase reporter, 24 h; hits give low values. activity change, negative = inhibition, % (no concentration beside the values). 0.8% of 37,000 active;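 active means -10% or lower and over 25 points stronger than a control reporter; inconclusive means -10% or lower with a smaller gap; inactive means above -10%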;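 further: 0% = median of neutral control wells and -100% = median of positive control wells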
DUX4 txn inh difference: second read-out of DUX4 txn inh, no call of its own (marks repeat the call); Gaussia minus Italica difference, %; measured here: selective DUX4 reporter inhibition;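 worked out from the two reporters; negative = selective loss of the DUX4 reporter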
DUX4 txn inh control: second read-out of DUX4 txn inh, no call of its own (marks repeat the call); activity change, negative = inhibition, %; measured here: Italica tet-on control reporter;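 0 = neutral control and -100 = positive control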
* marks the source's active call; other numbers are inactive results; ? = inconclusive; · = no result given. The list is partial. The share of hits here may be higher or lower than overall.

Molecule	DUX4 txn inh	DUX4 txn inh difference	DUX4 txn inh control
Cc1noc(C)c1NC(=O)N[C@H]1CC[C@H](CC(=O)NCc2ccc(Cl)c(Cl)c2)O[C@H]1CO	-3.1	-4.4	1.3
C[C@@H]1CC=CCCNC(=O)[C@@H](Cc2ccccc2)N(C)C(=O)c2ccccc2O1 (mixture of isomers)	-2.4	0.4	-2.8
N#C[C@H]1[C@@H](c2ccc(C3=CCCCC3)cc2)[C@H](CO)N1C(=O)Cc1ccncc1	2.4	-0.6	3.0
CNC[C@@H]1Oc2ncc(-c3cncnc3)cc2C(=O)N([C@H](C)CO)C[C@@H]1C	-0.6	2.4	-2.9
CS(=O)(=O)Nc1ccc2c(c1)[C@H]1C[C@H](CC(=O)NCc3cc(F)ccc3F)O[C@@H](CO)[C@H]1O2	4.8	5.0	-0.3
CCC(=O)N1CC2(C1)CN(Cc1ccc(OC)cc1)[C@@H](CO)c1[nH]c3cc(OC)ccc3c12	8.5	-5.6	14.0
COc1ccc([C@@H]2C/C=C\C[C@@H](c3ccc4c(c3)OCO4)NC(=O)[C@H](c3ccccc3)CC(=O)N2)c(OC)c1	0.1	1.7	-1.6
CN1C(=O)c2cc(NC(=O)Cc3cccs3)ccc2OC[C@@H]2O[C@H](CC(=O)NCCc3ccncc3)CC[C@H]21	-2.2	-2.6	0.4

(more compounds)
Molecule	DUX4 txn inh	DUX4 txn inh difference	DUX4 txn inh control
C[C@@H]1CCCCO[C@@H](CN(C)C(=O)Nc2ccc3c(c2)OCO3)[C@H](C)CN([C@H](C)CO)C(=O)c2cc(NC(=O)C3CCCCC3)ccc2O1	8.1	6.2	1.9
CCC(=O)N1CC2(CCN(Cc3ccc(F)cc3)CC2)c2c(n(C)c3cc(OC)ccc23)[C@@H]1CO	-0.4	12.9	-13.3
COc1ccccc1C#Cc1ccc2c(c1)[C@@H]1[C@@H](CCN1C(=O)c1ccc(F)cc1)[C@@H](CO)N2	-0.4	-4.0	3.5
CC(C)(C)S(=O)N1Cc2cc(C(=O)O)nc(-c3cccc(C#CCC4CCCC4)c3)c2[C@@H]1CCO (some centres not stated)	0.9	-1.5	2.4
CCCNC(=O)N1CC2(CCN(C(=O)C3CCCCC3)CC2)c2c([nH]c3cc(OC)ccc23)[C@@H]1CO	?	·	·
Cc1ccccc1S(=O)(=O)N(C)C[C@H]1OCc2ccccc2-c2ccccc2C(=O)N([C@@H](C)CO)C[C@H]1C	-9.0	-10.6	1.6
CO[C@@H]1CC[C@H]2CCN(C)C(=O)[C@H](C)[C@H](OC)CN(C)C(=O)c3cc(C#N)ccc3OC[C@H]1O2	-0.6	0.8	-1.4
COCc1cn(CC[C@H]2CC[C@H](NC(=O)Nc3c(C)noc3C)[C@@H](CO)O2)nn1	10.3	6.4	3.9

(list continues)
Molecule	DUX4 txn inh	DUX4 txn inh difference	DUX4 txn inh control
CCNC(=O)[C@H]1[C@H](CO)[C@H]2Cn3c(ccc(/C=C/c4ccccc4)c3=O)[C@@H]1N2C(=O)c1ccncc1	5.9	1.8	4.1
O=C(C[C@H]1C[C@@H]2c3cc(NC(=O)c4ccc5c(c4)OCO5)ccc3O[C@@H]2[C@H](CO)O1)NCc1cccnc1	4.5	-0.1	4.5
CN(C)C(=O)c1ccc(-c2ccc3c(c2)[C@H]2[C@H](CCN2C(=O)c2ccccc2F)[C@H](CO)N3)cc1	?	·	·
CN(C)CC(=O)Nc1ccc2c(c1)[C@H]1C[C@@H](CC(=O)NCCc3ccccc3)O[C@@H](CO)[C@H]1O2	6.2	-1.3	7.5
C[C@H]1CN([C@@H](C)CO)C(=O)CCCn2cc(nn2)CO[C@@H]1CN(C)Cc1ccccc1	1.2	2.2	-1.0
N#C[C@H]1[C@@H](c2ccccc2)[C@H](CO)N1C(=O)CN1CCOCC1	-0.6	1.5	-2.1
O=C(C1CC1)N1[C@@H](CO)[C@@H](c2ccccc2)C12CN(Cc1cccc(Cl)c1)C2	?	·	·
CO[C@H]1CN(C)C(=O)c2cccc(C#N)c2OCC[C@@H]2CC[C@@H](OC)[C@@H](CN(C)C(=O)[C@H]1C)O2	0.7	2.9	-2.2

Following part
Molecule	DUX4 txn inh	DUX4 txn inh difference	DUX4 txn inh control
O=C1NCCCOCc2cn(nn2)CC[C@@H]1Cc1ccc(-c2ccccc2)cc1	2.4	0.1	2.3
CNC[C@@H]1Oc2ccc(NC(=O)Cn3cnnn3)cc2C(=O)N([C@@H](C)CO)C[C@@H]1C	1.0	0.2	0.8
O=C1N[C@H](c2ccccc2)COCc2cnnn2CC[C@H]1Cc1ccc(-c2ccccc2)cc1	-0.9	-1.3	0.4
C[C@H](CO)N1C[C@H](C)[C@@H](CN(C)C(=O)c2cc(Cl)cc(Cl)c2)OCc2ccccc2-c2ccccc2C1=O	-9.2	-9.1	-0.1
C[C@H]1CN([C@@H](C)CO)C(=O)c2cc(N(C)C)ccc2O[C@H]1CN(C)S(=O)(=O)c1cccs1	5.1	8.9	-3.8
O=C(C1CCOCC1)N1C[C@@H]2N[C@H](C1)C2c1ccc(-c2cccc(F)c2)cc1 (some centres not stated)	-7.8	-3.8	-4.0
CN(C)C(=O)c1ccc(-c2ccc3c(c2)[C@@H]2[C@@H](CCN2Cc2ccc4c(c2)OCO4)[C@@H](CO)N3)cc1	11.1	14.3	-3.2
CN1C(=O)c2cc(NC(=O)C3CC3)ccc2OC[C@@H]2O[C@H](CC(=O)NCCN3CCCC3)CC[C@@H]21	-1.8	1.0	-2.8

Next structures
Molecule	DUX4 txn inh	DUX4 txn inh difference	DUX4 txn inh control
O=S(=O)(NC[C@H]1[C@@H](c2ccccc2)[C@H](CO)N1CC1CC1)c1ccccc1	0.1	2.7	-2.5
CC(C)CC#Cc1cnc2c(c1)C(=O)N([C@@H](C)CO)C[C@@H](C)[C@H](CN(C)C(=O)c1cccnc1)O2	3.0	2.7	0.3
O=C(C[C@@H]1CC[C@H]2NC[C@H](O)COC[C@@H]2O1)Nc1nccs1	5.4	4.2	1.3
CCCC#Cc1ccc([C@@H]2[C@@H](C#N)N(C(=O)C3CCC3)[C@H]2CO)cc1	0.6	-1.0	1.6
CCC(=O)NC[C@@H]1[C@@H](c2ccc(C3=CCCC3)cc2)[C@H](CO)N1C(C)=O	0.8	-2.0	2.8
CCCC#Cc1ccc([C@@H]2[C@@H](CO)N(S(=O)(=O)c3cccc(F)c3)[C@H]2C#N)cc1	-1.4	0.4	-1.8
CN(C)C(=O)C[C@@H]1CC[C@H](NC(=O)Nc2cccc(F)c2)[C@H](CO)O1	2.3	8.9	-6.6
O=C(Nc1ccccc1F)N1C[C@@H]2[C@H](c3ccccc31)[C@@H](CO)N2C(=O)Cc1cccnc1	-3.3	-0.2	-3.0

(listing goes on)
Molecule	DUX4 txn inh	DUX4 txn inh difference	DUX4 txn inh control
O=C(c1ccc2c(c1)OCO2)N1C[C@@H]2[C@H](c3ccccc31)[C@@H](CO)N2Cc1cccnc1	3.7	-0.5	4.2
Cc1ccc(S(=O)(=O)N[C@H]2C=C[C@@H](CC(=O)NCCCN(C)C)O[C@@H]2CO)cc1	8.8	5.5	3.4
C[C@@H]1CN([C@H](C)CO)C(=O)c2c(c3ccccc3n2C)-c2ccccc2CO[C@@H]1CN(C)C(=O)Nc1ccc(F)cc1	3.7	1.0	2.7
C[C@@H]1CN([C@@H](C)CO)C(=O)c2cc(N(C)C)ccc2O[C@@H]1CN(C)S(=O)(=O)c1cn(C)cn1	-1.2	-4.3	3.1
COc1ccc2c3c([nH]c2c1)[C@H](CO)N(C(=O)c1ccccc1)CC31CN(C(=O)NC(C)C)C1	17.6	8.7	8.9
O=C(NCC1CC1)[C@@H]1[C@@H](CO)[C@@H]2Cn3c(cccc3=O)[C@@H]2N1CCC(F)(F)F	?	·	·
COc1ccc2c3c(n(C)c2c1)[C@H](CO)N(C(=O)c1ccncc1)CC31CCN(C)CC1	5.0	9.1	-4.1
CCCNC(=O)Nc1ccc2c(c1)C(=O)N(C)[C@H]1CC[C@@H](CC(=O)O)O[C@@H]1CO2	0.0	2.8	-2.8

Next part:
Molecule	DUX4 txn inh	DUX4 txn inh difference	DUX4 txn inh control
CCNC(=O)C[C@@H]1CC[C@@H]2[C@H](COC[C@H](O)CN2C(=O)c2cc(Cl)cc(Cl)c2)O1	5.9	7.9	-2.0
O=C(C[C@@H]1CC[C@@H]2NC[C@H](O)COC[C@H]2O1)NCc1ccc(Oc2ccccc2)cc1	1.1	2.7	-1.5
COc1ccc(S(=O)(=O)N2CC[C@@H]3[C@H]2c2cc(-c4ccccc4F)ccc2N(C)[C@H]3CO)cc1	-2.6	-1.5	-1.2
CC(C)CC#Cc1ccc2c(c1)O[C@@H](CN(C)Cc1cncnc1)[C@H](C)CN([C@@H](C)CO)S2(=O)=O	-0.9	-0.9	-0.1
COc1ccc2c3c([nH]c2c1)[C@H](CO)N(C(=O)CC1CC1)CC31CCN(C(=O)CC2CC2)CC1	12.3	17.0	-4.7
COc1ccc(-c2ccc3c(c2)[C@@H]2[C@@H](CCN2Cc2ccccc2F)[C@H](CO)N3)cc1	?	·	·
C[C@@H]1CN([C@@H](C)CO)S(=O)(=O)c2ccc(C#Cc3cccc(F)c3)cc2O[C@H]1CN(C)S(=O)(=O)c1cn(C)cn1	-1.4	-1.4	0.0
CCCNC(=O)[C@H]1[C@H](CO)[C@H]2Cn3c(cccc3=O)[C@@H]1N2Cc1cccc(Cl)c1	2.9	7.1	-4.2

The listing continues.
Molecule	DUX4 txn inh	DUX4 txn inh difference	DUX4 txn inh control
CCS(=O)(=O)N1CCCCN2[C@H](CO)[C@H](c3ccc(-c4ccc(C#N)cc4)cc3)[C@@H]2C1	-7.9	2.3	-10.2
CN1c2ccc(Br)cc2[C@H]2[C@H](CCN2C(=O)Cc2ccccc2)[C@H]1CO	8.0	2.9	5.1
CC(=O)N1[C@@H]2c3ccc(-c4cccc(F)c4)c(=O)n3C[C@H]1[C@H](CO)[C@H]2C(=O)NCC1CC1	5.8	4.8	1.0
Cc1ccccc1S(=O)(=O)N1CC(=O)N2[C@H](C1)[C@H](c1ccc(C#CC3CC3)cc1)[C@@H]2CO	?	·	·
C[C@H](CO)N1C[C@H](C)[C@@H](CN(C)C(=O)NC2CCCCC2)OCCCC[C@H](C)Oc2ccc(N(C)C)cc2C1=O	-0.9	-2.0	1.1
C[C@@H]1CN([C@H](C)CO)C(=O)c2c(c3ccccc3n2C)-c2ccccc2CO[C@@H]1CN(C)Cc1ccncc1	-1.5	-4.4	2.9
O=C(C[C@H]1CC[C@@H]2[C@H](COC[C@@H](O)CN2Cc2ccccc2F)O1)NC1CCC1	7.9	3.4	4.5
COCCNC(=O)C[C@H]1CC[C@@H]2[C@H](COc3ccc(NC(=O)c4cnccn4)cc3C(=O)N2C)O1	0.3	2.1	-1.8

Going on with the list.
Molecule	DUX4 txn inh	DUX4 txn inh difference	DUX4 txn inh control
CCCC(=O)N1CCC2(CC1)CN(Cc1nccs1)[C@H](CO)c1[nH]c3cc(OC)ccc3c12	-1.4	5.3	-6.7
O=C(C[C@H]1CC[C@H]2[C@@H](COC[C@H](O)CN2S(=O)(=O)c2cccc(F)c2)O1)NCCCN1CCOCC1	7.5	10.0	-2.5
O=C(C[C@H]1C[C@@H]2c3cc(NC(=O)NC4CCCC4)ccc3O[C@@H]2[C@@H](CO)O1)NCc1ccncc1	1.4	-1.8	3.2
CCS(=O)(=O)N1CCC2(CC1)CN[C@@H](CO)c1[nH]c3cc(OC)ccc3c12	6.1	-8.2	14.3
O=C(CC1CC1)N1CC(=O)N2[C@H](CO)[C@@H](c3ccc(-c4ccccc4)cc3)[C@@H]2C1	?	·	·
N#C[C@@H]1[C@@H](c2ccc(C#CC3(O)CCCC3)cc2)[C@@H](CO)N1C(=O)C1CCC1	1.3	-3.9	5.2
CO[C@H]1CN(C)C(=O)c2ccc(NC(=O)NC(C)C)cc2OC[C@@H](C)N(CC2CC2)C[C@H]1C	2.3	-1.8	4.1
CCCC(=O)Nc1ccc2c(c1)OC[C@@H](C)N(S(=O)(=O)c1cn(C)cn1)C[C@H](C)[C@@H](OC)CN(C)C2=O	3.6	-0.5	4.2

Exported with two lines to a compound: 4 of the compounds above
Each structure is followed by: DUX4 txn inh, DUX4 txn inh difference, DUX4 txn inh control
CCS(=O)(=O)N1CCC2(CC1)CN[C@@H](CO)c1[nH]c3cc(OC)ccc3c12
  6.1, -8.2, 14.3
O=C(CC1CC1)N1CC(=O)N2[C@H](CO)[C@@H](c3ccc(-c4ccccc4)cc3)[C@@H]2C1
  ?, ·, ·
N#C[C@@H]1[C@@H](c2ccc(C#CC3(O)CCCC3)cc2)[C@@H](CO)N1C(=O)C1CCC1
  1.3, -3.9, 5.2
CO[C@H]1CN(C)C(=O)c2ccc(NC(=O)NC(C)C)cc2OC[C@@H](C)N(CC2CC2)C[C@H]1C
  2.3, -1.8, 4.1

Other compounds:
Molecule	DUX4 txn inh	DUX4 txn inh difference	DUX4 txn inh control
C[C@H]1CN([C@@H](C)CO)C(=O)CCCn2nncc2CO[C@H]1CN(C)S(=O)(=O)c1ccccc1C#N	4.2	5.9	-1.8
CCS(=O)(=O)N1CC(=O)N2[C@H](CO)[C@@H](c3ccc(-c4ccccc4C)cc3)[C@H]2C1	3.7	-3.6	7.3
O=C(C[C@H]1C[C@H]2c3cc(NC(=O)Nc4ccccc4F)ccc3O[C@H]2[C@@H](CO)O1)NCc1ccc2c(c1)OCO2	2.1	1.3	0.8
COCC#Cc1cnc2c(c1)C(=O)N([C@H](C)CO)C[C@@H](C)[C@H](CN(C)C(=O)CCN1CCCCC1)O2	3.8	2.8	1.0
